Screening results: PubChem BioAssay, National Center for Advancing Translational Sciences (NCATS)
PINK1 modulator: changes PINK1 expression; AID 624263; Potency, µM (highest dose often 76.6 µM), inactives show top-dose activation (PINK1 increase), actives largely listed as activators; 410,000 tested, 0.2% active; PINK1 immunofluorescence, high-content cytometry, 24 h; active = well fitted activation curve with a large enough effect; inconclusive = small, poorly fitted or top-dose-only effect; inactive = flat fitted curve, though single readings scatter; cell line not stated here;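 further: % of control where 0% means no effect; nearly all actives have a fitted effect of over 65% in size; a mitochondrial uncoupler was the plate control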
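Fluorescence from anti-PINK1 antibody, together with nuclear and cell stains, was scanned on a laser-scanning cytometer. Before staining, stable-line cells were incubated 24 hours with compounds at 5 concentrations; primary antibody 12 h at 10 degrees C.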
* hit, by the source's call. Potency means the concentration at half of the fitted maximal effect. This is a subset (hit frequency here may not be typical).

SMILES	PINK1 modulator
Cc1ncc(Cc2ccccc2)c(C2CCN(S(=O)(=O)C[C@]34CC[C@H](CC3=O)C4(C)C)CC2)n1	-0.1%
COc1ccc(-c2ccnc(-n3ncc(C(=O)NC(C)(C)CO)c3C3CC3)n2)cc1F	-0.5%
Cc1cc(C(=O)Nc2cccc(-c3nc(CNC(=O)c4cnccn4)c(C)o3)c2)c(C)o1	1.0%
CCC1CN(CCNC(=O)c2cccnc2C)Cc2cc(OC)ccc2O1 (stereo unspecified)	-0.5%
O=C(NCCN1Cc2ccccc2OC(c2ccsc2)C1)c1cncs1 (stereo unspecified)	-0.9%
Cc1ccsc1CN(C)c1ncnc2ccc(-c3ccoc3)cc12	2.4%
Cc1cc(C)n(CC(=O)N2CCC(n3c(C(C)C)nc4cccnc43)CC2)n1	-0.7%
COC(=O)C1CCN(Cc2ccc3c(c2)CN(C(=O)C2Cc4ccccc4O2)CCO3)CC1 (stereo unspecified)	2.2%
Cc1ccccc1-c1cc2c(c(OC3CCOC3)c1)OCCN(C(=O)Cn1cccn1)C2 (stereo unspecified)	0.3%
CCn1c(-c2ccccc2F)nc2cc(NC(C)=O)cc(C(=O)N3CCC[C@H]3C(=O)OC)c21	1.8%

Sorted by value in PINK1 modulator (high to low): 3 of the compounds above
SMILES	PINK1 modulator
Cc1ccccc1-c1cc2c(c(OC3CCOC3)c1)OCCN(C(=O)Cn1cccn1)C2 (stereo unspecified)	0.3%
Cc1ncc(Cc2ccccc2)c(C2CCN(S(=O)(=O)C[C@]34CC[C@H](CC3=O)C4(C)C)CC2)n1	-0.1%
Cc1cc(C)n(CC(=O)N2CCC(n3c(C(C)C)nc4cccnc43)CC2)n1	-0.7%

(cont.)
SMILES	PINK1 modulator
COCCC1CCCCN1Cc1nc(N2CCCCC2)c2cc(OC)c(OC)cc2n1 (stereo unspecified)	-1.3%
OCCCNCc1cc2ccc(F)cc2nc1N1CCN(c2cccc(Cl)c2)CC1	1.6%
Cc1ccc(CNc2ncnc3sc(C(=O)N4CCCCC4c4cccnc4)c(C)c23)o1 (stereo unspecified)	-0.7%
O=C(NCc1ccncc1)c1cnn(-c2nccc(-c3cc4ccccc4o3)n2)c1C1CC1	4.7%
O=C1NC(=O)C(Cc2ccccc2)(C2CCN(Cc3cccn3-c3cccnc3)CC2)N1 (stereo unspecified)	0.1%
COc1ccccc1-c1ccnc(-n2ncc(C(=O)NCc3cccc(C)n3)c2C)n1	-0.1%
COc1cc(OC)c2nc(-c3cc4c(c(OC)c3)OCCN(C(=O)C(C)c3n[nH]c(=O)c5ccccc35)C4)cc(C)c2c1 (stereo unspecified)	1.5%
C#Cc1cccc(C(=O)NCc2nc(-c3ccccc3NC(C)=O)oc2C)c1	-0.9%
O=C(c1cccnc1)C1CCCN(Cc2ccc3c(c2)CN(C(=O)c2cccs2)CCO3)C1 (stereo unspecified)	0.4%
CC(NC(=O)C1CCOCC1)c1nnc2n1CCN(Cc1ccc3cccnc3c1)CC2 (stereo unspecified)	2.0%
CCC(=O)N[C@@H]1c2ccccc2C2(CCN(Cc3ccccn3)CC2)[C@H]1OC	0.5%
COc1ccc(C(=O)NCc2nc(-c3cccc(NC(=O)c4ccc(C)s4)c3)oc2C)cc1	-0.7%
Cc1nc(SCc2nc3ccc(C(=O)c4ccccc4)cc3[nH]2)c2oc3ccccc3c2n1	2.1%
O=C(NCCc1nnc2n1CCN(Cc1ccc(F)cc1)CC2)c1ccc(F)cc1	-0.1%
CC1CN(CC(=O)NCc2ccc3c(c2)OCO3)Cc2cc(Cl)ccc2O1 (stereo unspecified)	0.4%
O=C1CC[C@@H](CN(Cc2cccnc2)C2CCN(c3ccc(NC(=O)c4cnccn4)cc3)CC2)N1	0.5%
Cc1c(C(=O)N2CCOc3ccc(Cl)cc3C2)sc2ncnc(NCCc3ccccn3)c12	0.2%
Cc1cnc(SCc2ccccn2)nc1C1CCCN(C(=O)c2scc3c2CCCC3)C1 (stereo unspecified)	0.8%
CC(C)NC(=O)c1cn(C2CCC(NC(=O)C(C)(C)C)CC2)nn1 (stereo unspecified)	-0.3%
COc1ccc(C(=O)NCC2Cc3cc(F)cc(-c4cncnc4)c3O2)cc1 (stereo unspecified)	-0.2%

Some of the entries so far, comma-delimited:
Molecule,PINK1 modulator
CCn1c(-c2ccccc2F)nc2cc(NC(C)=O)cc(C(=O)N3CCC[C@H]3C(=O)OC)c21,1.8%
CC(NC(=O)C1CCOCC1)c1nnc2n1CCN(Cc1ccc3cccnc3c1)CC2 (stereo unspecified),2.0%
COC(=O)C1CCN(Cc2ccc3c(c2)CN(C(=O)C2Cc4ccccc4O2)CCO3)CC1 (stereo unspecified),2.2%

(further entries)
SMILES	PINK1 modulator
Cc1c(C(=O)N2CC3CCC2C3)sc2ncnc(NCCc3ccccn3)c12 (stereo unspecified)	-0.6%
COC(=O)c1ccc(-c2cccc3c2OC(CNC(=O)/C=C/c2ccc(OC)c(OC)c2)C3)nc1 (stereo unspecified)	0.6%
Cc1nc2ccc(C(=O)N3CCc4c(cnc(C)c4CNC(=O)/C=C/c4cccs4)C3)cc2nc1C	-0.1%
CN(CCO)C(=O)c1cn(C2CCN(Cc3cccc4ccccc34)CC2)nn1	1.9%
COc1ccc(O)c(CN2CCCN(c3nc(C)c4cc(C)c(C)cc4n3)CC2)c1	-0.3%
COc1ccc(CN2CCOc3ccc(CN4CCC(Oc5cccnc5)CC4)cc3C2)cc1	-0.6%
Cc1cccc(CNC(=O)c2cnn(-c3ncc4c(n3)-c3ccccc3CC4)c2C2CC2)n1	-1.3%
COc1cccc(C(=O)NC(C)c2nnc3n2CCN(CC=C(C)C)CC3)c1 (stereo unspecified)	-0.3%
Cc1cc(C)cc(C(=O)NCCn2cc(C(=O)N3CCSCC3)nn2)c1	-0.6%
COCc1c(C(=O)NC2CCCCCC2)cnn1-c1nccc(-c2cc(C)sc2C)n1	0.1%
COc1cc(=O)n2c(c1C(=O)N(C)Cc1cscn1)CCN(C(=O)c1ccc(C)cc1C)CC2	0.4%
COC(=O)c1cc(CNC(=O)c2cccc3ccccc23)cc(NC(=O)c2ccccc2OC)c1	0.0%
COc1ccc(OC)c(-c2nnc3n2N=C(c2ccc(OC(F)F)c(OCC4CC4)c2)CS3)c1	4.8%
CC(=O)Nc1cc(C(=O)N2CCCC(C)C2)cc2ncn(CCc3ccccn3)c12 (stereo unspecified)	0.0%
OC1(c2cccnc2)CCN(Cc2ccc3c(c2)CN(Cc2cccc(C(F)(F)F)c2)CCO3)CC1	-0.6%
CC(=O)c1ccc(F)c(-c2cc(C)cc3c2OC(CNC(=O)Cc2ccc4c(c2)OCO4)C3)c1 (stereo unspecified)	0.6%
COc1cc(=O)n2c(c1C(=O)NCc1ccco1)CCN(C(=O)c1c(F)ccc(F)c1F)CC2	1.3%
CC1CN(CC(=O)NCC2(N3CCOCC3)CCCC2)Cc2cc(Cl)ccc2O1 (stereo unspecified)	-0.4%
COc1ccc(CNC(=O)c2cnn(-c3nccc(-c4ccco4)n3)c2C)cc1OC	0.9%
O=C(NCc1nnc2n1CCN(C(=O)c1cccc(Cl)c1)CC2)C1CC1	1.0%
COC(=O)c1cc(CNC(=O)c2cccc(N(C)C)c2)cc(NC(=O)c2ccccc2Cl)c1	-0.8%
COc1cccc(CN2CCCC(c3nc(-c4ccncc4)ncc3-c3ccccc3C)C2)c1O (stereo unspecified)	0.0%
O=C1CC(c2ccccc2)CC2=C1C1(CCCC1)N=C(Nc1nc3ccccc3o1)N2 (stereo unspecified)	1.8%
COc1cccc(CCNc2ncnc3sc(C(=O)N4CCOCC4)c(C)c23)c1	-1.0%
Cc1cn2cc(CNC(=O)CN3Cc4ccccc4OC(c4ccccc4F)C3)nc2s1 (stereo unspecified)	-0.5%
COc1cc(=O)n2c(c1C(=O)N(C)Cc1nonc1C)CCN(Cc1cccc(Cl)c1)CC2	1.1%
CCc1nc2cc(C(=O)NCC3CCS(=O)(=O)C3)cc(NC(=O)c3ccccc3OC)c2n1C (stereo unspecified)	0.7%
COc1ccccc1CC(=O)NCC1Cc2cc(F)cc(-c3cncnc3)c2O1 (stereo unspecified)	-0.1%
Cc1cnc(C(=O)NCc2c(C)ncc3c2CCN(C(=O)/C=C/c2cccs2)C3)cn1	-0.8%
COc1cccc(-c2ccnc(-n3ncc(C(=O)NCc4cccnc4)c3C3CC3)n2)c1	0.4%
CC(C)Cc1cc(C(=O)NCC2Cc3cc(F)cc(-c4ccccn4)c3O2)no1 (stereo unspecified)	-0.5%
COc1cc(OC)c(OC)cc1CN1CCOc2ccc(CN3C[C@@H](C)O[C@@H](C)C3)cc2C1	-0.6%
Oc1cc(-c2nc3ccccc3s2)cc2c1OCCN(Cc1cccn1-c1nccs1)C2	1.5%
COc1ccccc1C1CN(Cc2cccc(O)c2)Cc2ccccc2O1 (stereo unspecified)	7.1%
Cc1c(C(=O)NC2CCCCC2)sc2ncnc(NCCN(C)C)c12	0.1%
Cc1cnc(-n2ncc(C(=O)NCC3CCCN(C)C3)c2C)nc1-c1cccs1 (stereo unspecified)	0.4%
Cc1cnc(-n2ncc(C(=O)N3CCN(C(C)C)CC3)c2-c2ccco2)nc1-c1ccc(F)cc1	1.7%
Cc1ccc(CN2CCc3nnc(C(NS(C)(=O)=O)C(C)C)n3CC2)cc1C (stereo unspecified)	0.3%
CN(C(=O)c1cnn(-c2ncc3c(n2)-c2ccccc2CCC3)c1C1CC1)C1CCOC1 (stereo unspecified)	0.1%
CC(=O)c1ccc(F)c(-c2cc(C)cc3c2OC(CNC(=O)C(C)n2nc(C)cc2C)C3)c1 (stereo unspecified)	0.9%

Exported in CSV form: 4 of the compounds above.
mol,PINK1 modulator
COc1ccccc1C1CN(Cc2cccc(O)c2)Cc2ccccc2O1 (stereo unspecified),7.1%
Cc1c(C(=O)NC2CCCCC2)sc2ncnc(NCCN(C)C)c12,0.1%
Cc1cnc(-n2ncc(C(=O)NCC3CCCN(C)C3)c2C)nc1-c1cccs1 (stereo unspecified),0.4%
Cc1cnc(-n2ncc(C(=O)N3CCN(C(C)C)CC3)c2-c2ccco2)nc1-c1ccc(F)cc1,1.7%

The listing continues:
SMILES	PINK1 modulator
O=C1CCCC2=C1C1(CCCC1)N=C(Nc1nc3cc(-c4ccccc4)ccc3o1)N2	12.6%
COC(=O)c1ccccc1-c1cc(C)cc2c1OC(CNC(=O)C1CCOC1)C2 (stereo unspecified)	-0.3%
COCC(=O)Nc1cc(C(=O)N2CCC(c3ccccc3)CC2)cc2nc(-c3ccccc3)n(C)c12	5.2%
COc1ccccc1CNC(=O)c1cnn(-c2nccc(-c3cccs3)n2)c1C	2.7%
COc1cccc(CNC(=O)c2c(OC)cc(=O)n3c2CCN(C(=O)C2=C(C)OCCO2)CC3)c1	-0.8%
Cc1c(C(=O)NCCC2CCCN2C)cnn1-c1nccc(-c2ccccc2F)n1 (stereo unspecified)	-0.5%
COc1ccccc1-c1ccnc(-n2ncc(C(=O)NC(C)(C)CO)c2C2CC2)n1	0.1%
Cc1nc(SCc2nc3ccccc3[nH]2)c2oc3cc(Br)ccc3c2n1	1.9%
O=C(NCCc1nnc2n1CCN(CC1CC=CCC1)CC2)c1ccc(F)cc1 (stereo unspecified)	-0.6%
Cn1c(C2CCC2)nc2cc(C(=O)N3CCOc4ccccc4C3)cc(NC(=O)C3CCCO3)c21 (stereo unspecified)	0.5%
COc1cc(-c2cc(C)c3c(OC)ccc(OC)c3n2)cc2c1OCCN(C(=O)CCn1ccc(C)n1)C2	-0.2%
NC(=O)[C@@H]1CCCN1C(=O)CC1(c2cccc(F)c2)CC(=O)N(C2CCCC2)C1=O (stereo partly specified)	-0.4%
CCc1cc(C(=O)NCC2Cc3cc(C)cc(-c4cc(C(C)=O)ccc4F)c3O2)n(C)n1 (stereo unspecified)	2.1%
CCC1CN(Cc2cn[nH]c2-c2ccccc2)Cc2cc(OC)ccc2O1 (stereo unspecified)	1.2%
Cc1nc2cc(NC(=O)[C@@H]3C[C@@H](Sc4ccccn4)CN3Cc3ccc(F)cc3F)ccc2s1	0.0%
COc1ccc2c(c1)-c1nc(-n3ncc(C(=O)NC[C@@H]4CCCN5CCCC[C@H]45)c3C)ncc1CC2	-0.3%
CC(=O)c1ccc(F)c(-c2cc(C)cc3c2OC(CNC(=O)c2cnc4ccccn4c2=O)C3)c1 (stereo unspecified)	1.2%
Cc1c(C(=O)N(C)Cc2nccs2)sc2ncnc(NCC3CCCO3)c12 (stereo unspecified)	2.1%
Cc1ccccc1C(=O)N1CCc2c(cnc(C)c2CNC(=O)c2ccc3c(c2)OCO3)C1	0.6%
COc1cc(=O)n2c(c1C(=O)NC(C)c1ccco1)CCN(Cc1ccc3nsnc3c1)CC2 (stereo unspecified)	-0.2%
C[C@@H]1CN(Cc2ccc3c(c2)CN(Cc2cccc4cccnc24)CCO3)C[C@H](C)O1	1.0%
COc1c(O)cccc1[C@@H](O)C1CCN(CCc2ccc(F)cc2)CC1	-1.5%
CCC1(C2CCN(Cc3ccccc3Cl)CC2)NC(=O)N(CC2COc3ccccc3O2)C1=O (stereo unspecified)	1.0%
Cc1ccccc1-c1ccc(CN2CCc3nnc(C(NS(C)(=O)=O)C(C)C)n3CC2)cc1 (stereo unspecified)	2.2%
COC(=O)[C@@H]1C[C@@H](NC(=O)c2cnsn2)CN1Cc1ccc(Cl)cc1	0.4%
CC(C)c1c(C(=O)NCc2cccnc2)cnn1-c1nccc(-c2ccccc2F)n1	-0.2%
Cc1ccc(CNc2nc(CN3CCCCC3c3cccnc3)nc3ccccc23)o1 (stereo unspecified)	0.4%
Cc1cnc(-n2ncc(C(=O)N(C)CCc3ccccn3)c2-c2cccs2)nc1-c1ccc(F)cc1	0.6%
CCOC(=O)N1CCN(Cc2ccc3c(c2)CN(C(=O)c2cccc(-n4cccn4)c2)CCO3)CC1	-0.8%
Cc1ccnn1CC(=O)N1CCOc2c(cc(-c3ncc(C(F)(F)F)cc3Cl)cc2OCC2CCCO2)C1 (stereo unspecified)	0.6%
